Screening results: PubChem BioAssay, several laboratories
PKD1 kinase inh: blocks activity of human protein kinase D1 | PKD1 kinase fluorescence polarization assay | inhibition, %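 (about 10 µM by stock and volumes)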 | 200,000 compounds, 0.056% hits;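 active = inhibition of 50% or more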;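 also: controls were vehicle for no effect and a reference inhibitor for full effect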
Target sequence (Q15139 whole entry, looked up): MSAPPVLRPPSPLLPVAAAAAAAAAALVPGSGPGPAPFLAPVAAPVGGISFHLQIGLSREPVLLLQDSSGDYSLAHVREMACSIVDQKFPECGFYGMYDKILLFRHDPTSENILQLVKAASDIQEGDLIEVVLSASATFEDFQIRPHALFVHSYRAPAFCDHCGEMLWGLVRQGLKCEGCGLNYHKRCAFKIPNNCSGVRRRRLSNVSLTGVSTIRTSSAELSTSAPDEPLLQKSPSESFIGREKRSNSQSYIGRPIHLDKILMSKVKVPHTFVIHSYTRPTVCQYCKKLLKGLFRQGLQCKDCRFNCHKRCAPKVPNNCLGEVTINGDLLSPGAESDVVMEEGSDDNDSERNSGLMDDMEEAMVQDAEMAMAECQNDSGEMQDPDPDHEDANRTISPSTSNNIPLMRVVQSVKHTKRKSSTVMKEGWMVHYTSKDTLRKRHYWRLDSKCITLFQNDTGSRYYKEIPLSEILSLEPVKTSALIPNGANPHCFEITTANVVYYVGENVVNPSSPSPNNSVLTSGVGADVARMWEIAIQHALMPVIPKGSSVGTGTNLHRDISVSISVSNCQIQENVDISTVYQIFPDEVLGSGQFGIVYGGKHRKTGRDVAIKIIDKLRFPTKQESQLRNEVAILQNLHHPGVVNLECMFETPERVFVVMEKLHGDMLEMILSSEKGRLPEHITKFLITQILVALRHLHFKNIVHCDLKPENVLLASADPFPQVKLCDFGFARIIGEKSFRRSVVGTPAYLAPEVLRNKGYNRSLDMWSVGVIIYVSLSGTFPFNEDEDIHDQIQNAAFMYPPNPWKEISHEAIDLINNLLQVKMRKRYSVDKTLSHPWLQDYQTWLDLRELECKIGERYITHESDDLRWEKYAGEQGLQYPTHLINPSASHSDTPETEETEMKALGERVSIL
HSV augment: increases HSV replication in cells; maximum fold increase; HSV replication augmentation in cells, fold increase; 220,000 compounds, 0.005% hits;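 active = peak rise of 1.5-fold or more in the series; inconclusive = self-fluorescent or not available for retest; tested in PC3 cells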;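 also: first round at 10 µM; read as green reporter fluorescence; hits show the peak of a series up to 25 µM; 1 = signal of infected wells without compound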
RGS16-Gao: regulators of human RGS16-Galphao interaction; O15492+P09471; AID 1441; bead-based flow cytometry RGS16-Galphao binding, fluorescence; actives lie on both sides; 220,000 compounds, 0.38% hits; binding response (% of control), % at 10 µM;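 active = below 25% or above 175%, edge rows of some plates excepted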;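 also: Galphao activated by GDP with aluminum fluoride before binding; 100% = wells without compound and 0% = beads without RGS; some results beyond the cut were filed as inactive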
GALR2 ag: agonists of human galanin receptor 2 (GALR2) | GALR2-expressing cells, agonist activation read-out | activation, %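 (tested at 5 µM)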 | 140,000 compounds, 0.48% hits;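 active = above mean plus 3 SD of all compounds, about 5% in these data, not always enough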;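 also: 0% = vehicle buffer wells and 100% = reference agonist at full effect; tested in CHO reporter cells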
INS promoter inh: TRM-6 insulin promoter activity inhibition; AID 1273; 130,000 compounds, 0.9% hits; TRM-6 cells (human fetal islet line), insulin promoter-eGFP reporter, imaging; reporter expression induced with tamoxifen; inhibition, % at 2 µM;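 active = inhibition above the mean plus 3 SD, with well images judged a real hit on visual review, cut at about 60% in these data, passing the limit was not always enough; inconclusive = inhibition over the cutoff but images rejected on review; inactive = inhibition not above the cutoff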
INS promoter inh cell count: recorded beside INS promoter inh, whose call it bears; normalized cell count, %; measured here: cell count, toxicity; reference of the scale not given here;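 cells exposed to compound for 48 h; stained nuclei by imaging scaled within each plate; lower means fewer cells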
HSV augment primary fold: also measured in HSV augment; calls as there; fold increase; compound at 10 µM; measured here: primary screen fold increase 10 uM; tested in PC3 cells;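 GFP signal in the first replicate; 1 = infected wells without compound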
An asterisk follows results filed as active; i = inactive; ? = inconclusive; . = no result given.

SMILES	PKD1 kinase inh	HSV augment	HSV augment primary fold	RGS16-Gao	GALR2 ag	INS promoter inh	INS promoter inh cell count
Cc1ccccc1-c1nc(CN2CCC(C(=O)NCc3cccs3)CC2)c(C)o1	2	i	1	100	-1.5	.	.
COc1ccc(N(CC(=O)NC2CCCCCCC2)S(=O)(=O)c2c(C)nn(C)c2C)cc1	2	i	0.99	102	-2.1	.	.
OCCC1CN(Cc2cccc(-n3cccn3)c2)CCN1Cc1ccccc1 (configuration not stated)	1	i	0.85	100	.	.	.
CCOc1ccccc1NC(=O)Cn1nnc(-c2ccc(OCC)c(OCC)c2)n1	-1	i	1	107	1.2	.	.
Cc1nc2cc(NC(=O)N(C)c3ccc4ccccc4c3)ccc2o1	-1	i	0.95	95	5.0*	71*	30*
COc1cccc(C(=O)Nc2cc(C(F)(F)F)ccc2Cl)c1	-6	i	0.71	102	-0.8	.	.
O=C(Nc1ccc(F)cc1F)C1CCN(C(=O)c2ccc(Br)cc2)CC1	-5	i	0.95	103	.	0	85
CCCCCCn1c(CN2CCCCC2CC)nc2c1c(=O)n(C)c(=O)n2C (configuration not stated)	-9	i	0.92	97	-1.1	.	.
O=C(COc1ccc(S(=O)(=O)N2CCOCC2)cc1)NC1CCCC1	-11	i	0.72	100	-2.3	-83	131
O=C(CSC1=NC2(CCCCCC2)N=C1c1ccccc1)Nc1ccc2c(c1)OCCO2	-9	.	.	.	-1.2	19	108
Cc1cc(C)n(Cc2ccccc2)c(=O)c1S(=O)(=O)c1ccccc1	9	i	1.1	100	-2.6	-11	124
CCOc1ccc(Cl)cc1CN1CCOCC1	0	i	0.84	101	-1.8	41	93

More compounds.
SMILES	PKD1 kinase inh	HSV augment	HSV augment primary fold	RGS16-Gao	GALR2 ag	INS promoter inh	INS promoter inh cell count
COc1ccc(NS(=O)(=O)c2ccc3oc(SCc4ccc(F)cc4)nc3c2)cc1	5	i	0.98	101	-0.1	-35	86
O=C(c1ccc(NC(=S)NCc2ccc(Cl)cc2)cc1)N1CCCCC1	-13	i	0.78	87	.	.	.
O=C(Nc1nc2ccccc2n1Cc1ccccc1)c1ccco1	-2	i	0.86	100	-4.3	-3	51
O=C(NCCCN1CCOCC1)c1ccc(N2CCCC2)c([N+](=O)[O-])c1	-1	i	1	103	.	19	112
CC(C)CC(CO)N1CCN(C(=O)c2cccc(C(F)(F)F)c2)CCC1=O (configuration not stated)	8	i	1.2	106	-1.3	-90	69
COc1ccc(NC(=S)N(CCN(C)C)Cc2cccs2)cc1	-6	i	0.94	100	.	.	.
COc1ccc(C(=O)n2cc(C(=O)c3cc(C)ccc3O)cn2)cc1	0	i	0.8	101	-2.1	11	96
CCOC(=O)c1c(NC(=O)CC2SC(=NC)N(C)C2=O)sc(C)c1C (configuration not stated)	-8	i	0.9	98	-0.9	1	148
Cc1ccc(/C=C/C(=O)OCC(=O)N2CC(=O)Nc3ccccc32)o1	-10	i	1.1	99	.	-11	115
COc1ccc(Cc2nn3c(-c4cc(OC)c(OC)c(OC)c4)nnc3s2)cc1	-6	i	0.86	96	-0.3	56	74
O=C(c1cccnc1)N1CCN(C/C=C/c2ccccc2)CC1	-5	i	1.6	102	.	.	.
NCCCCCc1nnc(SCc2ccc(Cl)cc2Cl)o1	2	i	0.89	109	0.2	43	148

(further entries)
SMILES	PKD1 kinase inh	HSV augment	HSV augment primary fold	RGS16-Gao	GALR2 ag	INS promoter inh	INS promoter inh cell count
COC(=O)c1[nH]c2cc(OC)c(OC)cc2c1NC(=O)c1cccc(OC)c1	-3	i	0.89	104	-1.9	6	107
CCOC(=O)C1CCCN(c2c(NCCc3cccc(C)c3)c(=O)c2=O)C1 (configuration not stated)	.	i	0.92	102	.	.	.
CCCCn1c(N)c(N(CC)C(=O)c2cc(Br)ccc2Cl)c(=O)[nH]c1=O	1	i	0.97	107	.	.	.
O=[N+]([O-])c1ccccc1/C=N/N1CCN(c2ccncc2S(=O)(=O)N2CCCCC2)CC1	-8	i	1	103	-2.4	8	66
CC(=O)NCc1ccc(C(=O)CSc2nnc(-c3ccncc3)n2Cc2ccccc2)o1	-1	i	0.96	93	-1.5	4	123
COc1ccc(C(=O)Cn2nnc(-c3ccccc3NC(=O)c3ccco3)n2)cc1	2	i	0.88	101	-2.8	.	.
N#Cc1cc(C(=O)c2cc(Cl)ccc2O)cn(-c2ccccc2)c1=O	-8	?	.	103	-0.5	-119	94
CC(=O)NS(=O)(=O)c1ccc(NC(=O)c2cc(-c3ccc(C)c(C)c3)nc3ccccc23)cc1	4	i	1	99	-1.2	-34	114
CCOC(=O)C1C(=O)C=C(c2cccs2)CC1c1ccccc1C (configuration not stated)	-10	i	1.2	103	0.8	.	.
CCOC(=O)c1c(NC(=O)C2COc3ccccc3O2)sc(C)c1C (configuration not stated)	0	i	1.1	102	-1.2	-19	95
Cc1cc(NC(=O)CSc2nc(-c3cccs3)cc(C(F)(F)F)n2)no1	-8	i	0.63	100	0.5	25	99
O=C(N/N=C/c1cc(Br)c(Br)s1)c1ccncc1	7	i	0.81	103	.	.	.

(next part)
SMILES	PKD1 kinase inh	HSV augment	HSV augment primary fold	RGS16-Gao	GALR2 ag	INS promoter inh	INS promoter inh cell count
C/C(=N\Nc1ccc(F)cc1F)c1ccccc1O	-2	i	0.99	100	.	.	.
COc1ccc(CC(=O)Nc2ccc3c(c2)OCO3)cc1S(=O)(=O)N1CCOCC1	-8	i	1	102	-2.0	.	.
N#CCCN1CCN(Cc2cc(-c3ccccc3)ccc2O)CC1	5	i	0.9	102	-2.4	.	.
CCOC(=O)c1c(C)c(C(=O)N2CCc3ccccc3C2)c(C)n1CC	-10	i	0.87	110	-2.0	.	.
CC1CC(C)CN(c2oc(-c3ccccc3Cl)nc2C#N)C1 (configuration not stated)	-9	i	0.91	101	-0.8	55	56
CC(C)(C)OC(=O)NC(CCCCNC=O)C(=O)O (configuration not stated)	2	i	0.81	102	-1.9	-14	65
O=C(CS(=O)(=O)c1ccccc1)N1CCCCCC1	-5	i	0.92	99	-2.5	27	120
Cc1ccccc1OCC(=O)O/N=C(\N)Cc1cccs1	0	i	1	104	-1.3	.	.
COc1cccc2c1OC[C@@H](CO)[C@H]2N(C)C(=O)Nc1ccccc1	1	i	0.96	104	-2.4	.	.
Cc1ccc(-c2cc(C(=O)N/N=C/c3c(C)nn(-c4ccccc4)c3C)n[nH]2)s1	-11	i	0.6	107	1.5	-146	16
CCc1ccc(C(C(=O)NCCOC)N(C(=O)Cn2nnc3ccccc32)c2cccnc2)cc1 (configuration not stated)	0	i	0.83	101	-2.0	-450	83
CCc1ccc(-c2csc(NC(=O)COC(=O)CCc3nc4ccccc4s3)n2)cc1	-1	i	1.1	100	0.2	.	.

(further entries)
SMILES	PKD1 kinase inh	HSV augment	HSV augment primary fold	RGS16-Gao	GALR2 ag	INS promoter inh	INS promoter inh cell count
CN(Cc1ccccc1)c1nc(-c2cccc([N+](=O)[O-])c2)nc2ccccc12	0	i	0.98	109	-0.4	-43	83
CSc1ncccc1C(=O)NC1CCCCCC1	-3	i	0.95	100	.	.	.
O=c1[nH]c(-c2ccccc2)nc2sc(-c3ccccc3)cc12	3	i	0.98	109	.	.	.
CC1CCN(C(=O)Cn2cc(SCC(=O)NCC3CCCO3)c3ccccc32)CC1 (configuration not stated)	-6	.	.	121	.	-86	34
c1coc(C2=Nc3cccc4cccc(c34)N2)c1	3	i	0.95	104	.	.	.
Cc1cccc(OCC(=O)N/N=C/c2cn[nH]c2-c2ccc(Cl)c(Cl)c2)c1	-7	.	.	107	0.8	.	.
c1ccc(CSc2nnc3c4ccccc4c4ccccc4c3n2)cc1	.	i	0.91	107	.	.	.
COc1nc(N(C)C)nc(N(C#N)CCOC(C)=O)n1	0	i	0.84	96	.	-283	111
O=C(NNC(=O)NC1CCCCC1)NC1CCCCC1	-2	i	0.96	94	.	.	.
Cc1ccc(N(CC(N)=O)C2SC(=O)NC2=O)cc1 (configuration not stated)	-2	i	1	97	-1.3	-14	101
CN1CCN(CCc2cn3ncc(C#N)c3nc2-c2ccc(F)cc2)CC1	-8	i	1.1	104	.	.	.
COCCOC(=O)c1c(NC(=O)CN2CCc3ccccc32)sc(C(N)=O)c1C	.	i	1.2	101	.	.	.

Further results
SMILES	PKD1 kinase inh	HSV augment	HSV augment primary fold	RGS16-Gao	GALR2 ag	INS promoter inh	INS promoter inh cell count
CCOc1c2ccc(C(=O)NCCCCc3ccccc3)cc2nn1CC	-5	i	0.77	98	-4.4	.	.
COc1ccc(OC)c(C2SCCN2S(C)(=O)=O)c1 (configuration not stated)	1	i	0.68	97	-1.3	10	145
CCCOc1cccc(C(=O)Nc2nnn(CCC)n2)c1	-20	i	0.96	96	-1.0	.	.
CCn1c(SCC(=O)N2CCCCC2C)nnc1-c1ccc(S(=O)(=O)N2CCN(C)CC2)cc1 (configuration not stated)	0	i	0.94	132	-1.6	-38	91
COc1cccc(NC(=O)Nc2ccc(Br)cn2)c1	.	i	0.9	106	.	.	.
Cc1nc(NC(=O)/C=C/c2ccccc2)sc1C(=O)NCCO	3	i	0.68	107	.	.	.
CCNc1ccc(C(=O)OC(C(=O)NC(N)=O)C(C)C)cc1[N+](=O)[O-] (configuration not stated)	-2	i	0.99	112	.	-30	54
COc1cc(C2=Nc3c(c(C)nn3-c3ccccc3)P(=O)(N3CCOCC3)O2)cc(OC)c1OC (configuration not stated)	-8	i	1.1	100	0.5	-18	118
CC(=O)NC(CCS(C)(=O)=O)C(=O)Nc1cccc(C)c1 (configuration not stated)	9	i	0.74	103	-0.8	.	.
CCOC(=O)C1=NNC2(c3ccc(C)cc3)C(=O)N(c3ccccc3)C(=O)C12 (configuration not stated)	.	i	1.1	104	.	.	.
CC12CN3CC(C)(CN(C1)C3c1ccc(F)cc1)C2 (configuration not stated)	-4	i	1	108	.	-67	61
COc1ccc(-c2nc(N)n(C(C)=O)n2)cc1	-5	i	1.1	114	-0.7	36	150

Continuation.
SMILES	PKD1 kinase inh	HSV augment	HSV augment primary fold	RGS16-Gao	GALR2 ag	INS promoter inh	INS promoter inh cell count
Cc1ccc(N2C(=O)[C@@H]3Cc4ccccc4CN3C2=O)cc1	-12	i	0.88	103	-2.0	-18	109
COc1ccc(-c2ccc(=O)n(Cc3ccc([N+](=O)[O-])cc3)n2)cc1	-8	i	0.93	101	.	53	89
CCOc1ccccc1N(CC(=O)N/N=C/c1cc(Br)ccc1OC)S(C)(=O)=O	-3	i	0.82	100	0.8	20	221
O=C(Cn1nnc(-c2ccc(Cl)cc2)n1)NCC1CCCCC1	-3	i	0.92	101	-0.1	.	.
COc1ccc(NC(=O)N[C@@H](Cc2ccccc2)C(=O)NN)cc1	.	i	0.99	101	.	.	.
CCOC(=O)C(CC)n1nc(C)n2c(cc3sccc32)c1=O (configuration not stated)	-8	i	0.9	.	0.3	-30	94

Some of the entries above in another layout:
Each structure is followed by: PKD1 kinase inh, HSV augment, HSV augment primary fold, RGS16-Gao, GALR2 ag, INS promoter inh, INS promoter inh cell count
- COc1ccc(NC(=O)N[C@@H](Cc2ccccc2)C(=O)NN)cc1
    ., i, 0.99, 101, ., ., .
- COc1ccc(-c2ccc(=O)n(Cc3ccc([N+](=O)[O-])cc3)n2)cc1
    -8, i, 0.93, 101, ., 53, 89
- O=C(Cn1nnc(-c2ccc(Cl)cc2)n1)NCC1CCCCC1
    -3, i, 0.92, 101, -0.1, ., .
- CCOc1ccccc1N(CC(=O)N/N=C/c1cc(Br)ccc1OC)S(C)(=O)=O
    -3, i, 0.82, 100, 0.8, 20, 221
- Cc1ccc(N2C(=O)[C@@H]3Cc4ccccc4CN3C2=O)cc1
    -12, i, 0.88, 103, -2.0, -18, 109
- CCOC(=O)C(CC)n1nc(C)n2c(cc3sccc32)c1=O (configuration not stated)
    -8, i, 0.9, ., 0.3, -30, 94
